WNV protease inh: blocks West Nile virus NS2B-NS3 protease activity; P06935; z-score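 (tested at a level between 10 and 100 µM)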; actives 0.18% (n = 65,000); WNV NS2B-NS3 protease, fluorogenic substrate Ex360/Em465; hits give low values;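 active means z-score at -3 or under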;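 further: score is relative to mean and spread of the compound wells of a plate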
Target sequence (P06935 1371-1501 limits assumed): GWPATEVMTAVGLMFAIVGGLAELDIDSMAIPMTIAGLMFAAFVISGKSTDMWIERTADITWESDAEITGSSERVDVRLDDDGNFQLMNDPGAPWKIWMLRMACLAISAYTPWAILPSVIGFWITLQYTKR
Target sequence (P06935 1502-1679 limits assumed): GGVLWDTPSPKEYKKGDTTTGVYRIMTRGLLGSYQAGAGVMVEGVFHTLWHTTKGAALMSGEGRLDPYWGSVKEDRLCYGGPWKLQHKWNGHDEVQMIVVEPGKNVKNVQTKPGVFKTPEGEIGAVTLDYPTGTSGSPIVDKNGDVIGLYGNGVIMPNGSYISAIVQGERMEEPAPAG
Hsc70: small molecules displacing fluorescent ligand from Hsc70 – biochemical, fluorescence polarization, primary screen (AID 568); Hsc70 fluorescence polarization, probe displacement; higher % means a stronger effect; strong numbers were not always called active; displacement, % at 20 µM; hits with a dose series show IC50 in µM; 83,000 tested, under 10 active;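 active means displacement above 50% without optical interference and an IC50 on retest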;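 further: ATPase domain with a fluorescein-tagged ATP probe; 0% = vehicle and 100% = excess ADP; read after one hour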
MT1-MMP promoter: inhibitors of MT1-MMP promoter transcription, cell-based, luciferase reporter, luminescence (AID 618). MT1-MMP promoter luciferase reporter cells, luminescence. actives 0.62% (n = 87,000). calls from a first round at 10 µM; hits with a dose series show EC50 in µM;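 active means over half of the reporter light lost at 10 µM or EC50 under 50 µM; inactive means the rest and hits that failed the dose series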;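 further: actives suppress MT1-MMP promoter-driven transcription so potencies describe inhibitors; HT1080 fibrosarcoma cells; overnight exposure; toxic or luciferase-blocking compounds were not removed from the actives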
* = called active by the depositor; i = inactive; . = no result given. A portion of the library; rates above refer to the full screens.

| SMILES | WNV protease inh | Hsc70 | MT1-MMP promoter |
| --- | --- | --- | --- |
| CCN1C(=O)C(CC(=O)NC2CCCCC2)N(CC)C1=O (stereo not given) | 0.17 | 3.5% | i |
| Cc1nn(-c2ccccc2)c2sc(C(=O)N(CC(=O)NC3CCCC3)Cc3ccco3)cc12 | 1.43 | 0.0% | i |
| O=C(CCSc1nc(-c2ccc3c(c2)OCO3)cc(C(F)(F)F)n1)NCc1ccco1 | 1.07 | 1.2% | i |
| COc1ccc(OC)c(-c2nnc(SCC(=O)N3CCOCC3)o2)c1 | -1.27 | -4.4% | i |
| COc1ccc(NC(=O)C2c3cc(OC)c(OC)cc3C(=O)N(C)C2c2cccnc2)cc1OC (stereo not given) | -0.04 | 0.0% | i |
| C=CC[n+]1c(-c2ccc(OCC)cc2)csc1NNC(=O)Nc1ccccc1 | . | 6.5% | i |
| O=C1CCC(=O)N1CNc1cccnc1 | -0.54 | 4.1% | i |
| Cc1csc(NC(=O)Nc2ccc(Cl)cc2)n1 | 0.82 | 1.1% | i |
| Cc1cc(C)nc(/N=C/c2c(O)n(C)c(=O)n(C)c2=O)n1 | 1.06 | 4.0% | i |
| CCc1ccc(N2CC(C(=O)Nc3nccs3)CC2=O)cc1 (stereo not given) | -0.7 | -3.0% | i |
| O=C1c2ccccc2C(=O)C1c1ccnc2ccccc12 | . | -17.3% | 1.02µM* |
| Cn1c(SCC(=O)c2ccc3c(c2)OCO3)nnc1C1COc2ccccc2O1 (stereo not given) | 1.11 | -2.9% | i |
| Cc1ccc(NC(=O)C2C3C=CC4(CN(Cc5cccnc5)C(=O)C24)O3)cc1 (stereo not given) | -0.00637 | 2.9% | i |
| c1ccc(N2CCN(c3nc4ccccc4n4nnnc34)CC2)cc1 | 0.95 | 37.5% | i |
| Cc1cc(Nc2nc3c(c(=O)n(C)c(=O)n3C)n2C)n(-c2ccc(Cl)cc2)n1 | -0.58 | -4.1% | i |
| CCOC(=O)CNc1c(-c2ccc(F)cc2)nc2cnccn12 | 2.51 | 11.0% | i |
| O=C1c2cccc3c([N+](=O)[O-])ccc(c23)C(=O)N1c1nccs1 | . | 4.0% | i |
| CCOC(=O)c1c(N)sc2c(O)c(Br)ccc12 | -1.12 | 7.5% | i |
| Cc1cccc(-n2ncc3c(NCCc4ccc(S(N)(=O)=O)cc4)ncnc32)c1 | -1.64 | 3.8% | i |
| O=C(CN1CCN(C(=O)c2ccccc2F)CC1)Nc1ccc(Br)cc1 | 0.77 | -11.1% | i |

The listing continues.
| SMILES | WNV protease inh | Hsc70 | MT1-MMP promoter |
| --- | --- | --- | --- |
| Cc1nnc(NC(=O)CSc2nnc(CCc3nc4ccccc4[nH]3)n2C)s1 | 1.84 | -4.6% | i |
| CCNC(=O)CC1C(=O)N(c2ccc(OC)cc2)C(=O)N1Cc1ccc(OC)cc1 (stereo not given) | -0.52 | 2.2% | i |
| CCOc1ccc(C(=O)NCC2CCCO2)cc1 (stereo not given) | 0.54 | 4.9% | i |
| O=C(CSc1nc(O)c(C2CCCCC2)c(=O)[nH]1)NCC1CCCO1 (stereo not given) | -2.03 | 10.4% | i |
| CCOC(=O)N1CCC(NC(=O)CCc2c(C)nc3ncnn3c2C)CC1 | 0.86 | -7.9% | i |
| Cc1cc(C)n(CCCNC(=O)c2ccc3c(c2)NC(=O)CS3)n1 | 0.87 | -6.6% | i |
| Cc1cccc(C)c1NC(=O)CCCSc1nnc(-c2ccco2)o1 | -0.07 | 2.9% | i |
| O=C(Cc1cccs1)N1CCN(c2nc(-c3ccc(Cl)cc3)cs2)CC1 | -0.79 | 1.8% | i |
| COc1ccc(-c2nnc(-c3ccc(OCC(C)C)cc3)o2)cc1 | . | 3.6% | i |
| c1ccc(-n2ncc3c(N4CCCC4)ncnc32)cc1 | -0.13 | 7.0% | i |
| COc1ccc(N2C(=O)CC(n3c(CCCCO)nc4ccccc43)C2=O)cc1 (stereo not given) | -0.98 | 4.7% | i |
| CCC1(C(=O)O)NC(c2cc(OC)ccc2O)C2C(=O)N(Cc3ccccc3)C(=O)C21 (stereo not given) | -0.42 | -1.2% | i |
| COC(=O)C1CCN(c2cc(=O)n(-c3ccccc3Cl)c(=O)[nH]2)CC1 | -0.39 | -5.0% | i |
| CCOC(=O)C1=C(C)NC(=O)NC1c1ccc(Br)s1 (stereo not given) | 0.55 | -6.0% | i |
| C=CCn1c(COc2cccc3cccnc23)nnc1SCC(=O)O | -0.29 | 4.0% | i |
| Cc1cc(C)nc(Nc2nc3ccccc3[nH]2)n1 | 0.3 | 2.8% | i |
| CN(C)CCNC(=O)c1cc2cc(Br)ccc2oc1=O | 1.8 | -2.1% | i |
| CCCn1c(=O)c2ccccc2n2c(SCCOc3ccccc3F)nnc12 | 0.9 | -1.1% | i |
| COc1ccccc1Nc1nc(NCCO)c2ccccc2n1 | -0.29 | -2.7% | i |
| CCOc1ccc(-c2nnn(CC(=O)N3CCN(c4ccc(OC)cc4)CC3)n2)cc1OCC | -1.14 | -3.2% | i |

Looked up by compound from the entries so far, three records:
| SMILES | WNV protease inh | Hsc70 | MT1-MMP promoter |
| --- | --- | --- | --- |
| O=C(CSc1nc(O)c(C2CCCCC2)c(=O)[nH]1)NCC1CCCO1 (stereo not given) | -2.03 | 10.4% | i |
| Cc1cc(C)nc(/N=C/c2c(O)n(C)c(=O)n(C)c2=O)n1 | 1.06 | 4.0% | i |
| Cc1cccc(C)c1NC(=O)CCCSc1nnc(-c2ccco2)o1 | -0.07 | 2.9% | i |

(cont.)
| SMILES | WNV protease inh | Hsc70 | MT1-MMP promoter |
| --- | --- | --- | --- |
| CCOC(=O)c1ccc(NS(=O)(=O)c2cc(-c3nnnn3C(C)C)ccc2OC)cc1 | -1.72 | -2.0% | i |
| Cc1cc(C)cc(OCC(O)CN2C(=O)NC(C)(C)C2=O)c1 (stereo not given) | -0.91 | 4.3% | i |
| O=C1CC(N2CCN(C/C=C/c3ccccc3)CC2)C(=O)N1CCc1ccccc1 (stereo not given) | -0.59 | -0.3% | i |
| Cc1cc(NC(=O)CSc2ncnc3ccccc23)no1 | 0.85 | 54.7% | i |
| c1ccc(Nc2nc3ccccc3n3cnnc23)cc1 | 0.88 | 2.1% | i |
| CSc1nnnn1-c1cccc(O)c1 | 1.69 | -1.9% | i |
| Cc1ccccc1CS(=O)(=O)Cc1ccc(C(=O)NCCCN2CCCC2=O)o1 | 0.14 | -1.9% | i |
| c1ccc(-n2cnc3cc(NCc4ccncc4)ccc32)cc1 | 1.07 | 0.2% | i |
| CC(=O)N1CCCc2cc(S(=O)(=O)N(CC(C)C)CC(C)C)ccc21 | 1.46 | 2.2% | i |
| CC(=O)c1cc(-c2ccccc2)n(CC(=O)N2CCCCC2)c1C | . | 4.1% | i |
| CCOC(=O)N1CCN(C2CC(=O)N(c3ccccc3)C2=O)CC1 (stereo not given) | 2.22 | 2.0% | i |
| Cc1cccc(-c2c3c(=O)n(C)c(=O)n(C)c3c3c(C)cc(C)nn23)c1 | 1.33 | 5.0% | i |
| Cc1ccc(Cl)cc1N1CCN(S(=O)(=O)c2ccc3c(c2)oc(=O)n3C)CC1 | 1.58 | 3.6% | i |
| CC1C(=NO)C(C)C(c2ccc(N(C)C)cc2)NC1c1ccc(N(C)C)cc1 (stereo not given) | 0.39 | 4.0% | i |
| CCOC(=O)CCCNC(=O)CCNC(=O)c1ccc(OCC)cc1 | -0.35 | 8.5% | i |
| Cc1noc(C)c1COc1cccc(C(=O)NCc2ccccc2Cl)c1 | . | -0.3% | i |
| O=C(C1COc2ccccc2O1)N1CCN(Cc2ccc3c(c2)OCO3)CC1 (stereo not given) | -1 | 3.8% | i |
| CC(=O)N(Cc1cc2ccc(C)c(C)c2n2nnnc12)C1CCCC1 | -1.15 | -8.7% | i |
| COc1ccc2nc(NC(=O)C3CCCN3S(=O)(=O)c3ccc(C)cc3)sc2c1 (stereo not given) | -0.53 | 5.8% | i |
| O=C(O)C1CC(=O)N(c2ccc(F)cc2)C1 (stereo not given) | 0.83 | -1.2% | i |

Compound profiles (already shown). Values in the order: WNV protease inh, Hsc70, MT1-MMP promoter
`CC(=O)c1cc(-c2ccccc2)n(CC(=O)N2CCCCC2)c1C` across the screens: ., 4.1%, i
`O=C(O)C1CC(=O)N(c2ccc(F)cc2)C1` (stereo not given) across the screens: 0.83, -1.2%, i

Later entries
Order of values: WNV protease inh	Hsc70	MT1-MMP promoter
> N#Cc1c(N)nc2c(c1-c1cccnc1)CCCCC2
→ -1.49	3.7%	i
> CC(=O)N1CCN(S(=O)(=O)c2cccc(C(=O)NC3CCCc4ccccc43)c2)CC1 (stereo not given)
→ .	-5.0%	i
> Nc1nc(SCC(=O)Nc2ccccc2)[nH]c(=O)c1-c1ccccc1
→ .	1.3%	i
> CCCOc1ccc2c3c(c(=O)oc2c1OCCC)CCC3
→ -0.02	1.8%	i
> O=C1CC(Cc2ccccc2)C(=O)N1Cc1ccco1 (stereo not given)
→ -0.85	0.1%	i
> COc1ccc2nc(SCC(=O)N3CCN(c4ccc(F)cc4)CC3)c(C#N)cc2c1
→ .	-11.3%	i
> COc1cccc(-c2nc(-c3ccccn3)no2)c1
→ .	1.7%	0.66µM*
> COC(=O)c1sc(S(=O)(=O)N2CCC(C)CC2)c(C(=O)OC)c1C
→ -0.72	3.1%	i
> O=C(O)c1cccc(N2C(=O)c3cccnc3C2=O)c1
→ -0.14	3.0%	i
> COc1ccc(CCNC(=O)CSc2nnc(Cc3csc(N)n3)n2C)cc1OC
→ -0.47	-7.4%	i
> COc1ccc(CCNC2CC(=O)N(CCc3ccc(OC)c(OC)c3)C2=O)cc1OC (stereo not given)
→ -0.63	-0.3%	i
> COc1ccc(N2C(=O)CC(Sc3nc(C)c4c(n3)CCCC4)C2=O)cc1 (stereo not given)
→ -0.59	-2.9%	i
> CCC(C)(C)n1nnnc1CN1CCC(NC(=O)c2ccccc2C)CC1
→ .	0.8%	i
> COC(=O)C1=C(C)NC(C)=C(C(=O)OC)C1c1ccccn1
→ -0.1	3.8%	i
> O=C(O)Cn1nc2ccccc2n1
→ 0.04	-0.6%	i
> O=S(=O)(c1ccc(S(=O)(=O)N(Cc2cccs2)CC2CCCO2)cc1)N1CCCCC1 (stereo not given)
→ 0.57	-1.6%	i
> O=c1ccc(Cc2ccccn2)n[nH]1
→ .	3.1%	i
> O=C(CSc1ncn(-c2ccccc2)n1)Nc1nc2ccccc2s1
→ -0.27	1.8%	i
> Cc1cc2cc(CCNC(=O)c3ccc(Br)o3)c(=O)[nH]c2cc1C
→ 0.61	-0.8%	i
> c1ccc(-n2nnnc2-n2ccnc2)cc1
→ -1.29	3.8%	i
> COC(=O)c1cc2ccsc2n1CC(=O)N1CCCc2ccccc21
→ -1.36	0.1%	i
> COc1cccc2cc(C(C)N(CCCN3CCOCC3)C(=O)Nc3ccc(Cl)cc3)oc12 (stereo not given)
→ -0.16	-2.6%	i
> c1coc(CN2CCN(C(c3cccs3)c3nnnn3C3CCCC3)CC2)c1 (stereo not given)
→ .	1.7%	i
> CC(O)Cc1nsc(NC(=O)c2ccc(Br)o2)n1 (stereo not given)
→ 1.99	-4.6%	i
> CCOc1cc(CNC(=O)CN2C(=O)c3ccccc3S2(=O)=O)ccc1OC
→ -0.27	-3.3%	i
> Cc1ccc(-n2nnc3c(=O)n(CC(=O)N4CCCC4)cnc32)cc1
→ 1.33	0.3%	i
> O=C(CN(Cc1ccco1)C(=O)CNS(=O)(=O)c1ccccc1)NC1CCCCC1
→ -0.4	-4.7%	i
> CC(=O)NCC(=O)OCC(=O)c1ccc(C)cc1
→ 2.52	-4.8%	i
> COc1ccc(S(=O)(=O)NCC(=O)N(CC(=O)NCC2CCCO2)c2c(C)cccc2C)cc1 (stereo not given)
→ -0.26	-3.5%	i
> FC(F)(F)C1CC(c2cccs2)Nc2ncnn21 (stereo not given)
→ -0.75	-0.8%	i

Rewritten field by field: three of the compounds above
O=C1CC(Cc2ccccc2)C(=O)N1Cc1ccco1 (stereo not given)
- WNV protease inh = -0.85
- Hsc70 = 0.1%
- MT1-MMP promoter = i
COc1cccc2cc(C(C)N(CCCN3CCOCC3)C(=O)Nc3ccc(Cl)cc3)oc12 (stereo not given)
- WNV protease inh = -0.16
- Hsc70 = -2.6%
- MT1-MMP promoter = i
O=C(CSc1ncn(-c2ccccc2)n1)Nc1nc2ccccc2s1
- WNV protease inh = -0.27
- Hsc70 = 1.8%
- MT1-MMP promoter = i

Other results.
Order of values: WNV protease inh	Hsc70	MT1-MMP promoter
> CCCc1oc2c(c(=O)c1CC)C(=O)CC(C)(C)C2
→ -1.14	0.9%	i
> Cc1ccc(C)c2c1[nH]c1ccccc12
→ .	1.5%	i
> O=C(Cn1cccc1C(=O)c1ccccc1)NCc1ccco1
→ 1.15	-4.4%	i
> COCCOC(=O)C(C#N)c1nc2ccccc2nc1N1CCCC1 (stereo not given)
→ -0.09	1.7%	i
> CCC(C(=O)NC1CCCC1)N(Cc1ccco1)C(=O)Cn1nnc(-c2ccc(C)cc2)n1 (stereo not given)
→ -0.02	-1.7%	i
> Cc1ccccc1Cn1cc(NC(=O)c2cc(-c3cccs3)on2)cn1
→ 0.01	5.5%	i
> CS(=O)(=O)N(CC(N)=O)c1ccc2c(c1)OCO2
→ 0.54	-0.8%	i
> CC(=O)Nc1cccc(NC(=O)CSc2nnnn2C(C)C)c1
→ -0.25	-0.6%	i
> CN(C)c1nc(N)nc(-c2nc3ccccc3s2)n1
→ 0.05	1.9%	i
> Cc1cc(NC(=O)C(=O)NCCN2CCN(C(=O)c3cccs3)CC2)ccc1Br
→ .	-2.1%	i
> Cn1c(=O)[nH]c(=O)c2c1nc(CN1CCN(c3ccccc3F)CC1)n2CC(N)=O
→ -0.19	-1.3%	i

Source: PubChem BioAssay (several laboratories)
